Source: PubChem BioAssay (National Center for Advancing Translational Sciences (NCATS))
PI4K2A block = inhibitors of human PI4K2A. 420,000 compounds, 0.13% hits. AID 1346378. activity change, negative = inhibition, % at 76.9 µM. Q9BTU6. purified PI4K2A, ADP-Glo luminescence, 1 h; active compounds read low; in the data active means activity change below about -50%; inconclusive means mostly about -30% to -49%;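 further: -100% = wells without enzyme as full effect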
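Compounds are screened against recombinant PI4K2A using PI as substrate and ATP, the latter dispensed at 300 microM. Reactions run one hour at ambient temperature before ADP-Glo detection; full inhibition defined by wells lacking enzyme.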
Pol eta inh = DNA polymerase eta (human) inhibition | Q9Y253 | recombinant Pol eta, fluorescent DNA replication assay | Potency, µM (top dose mostly 114 µM), inactives show at the top dose activity change, negative = inhibition, actives largely listed as inhibitors | 390,000 compounds, 1.2% hits; further: potency means the concentration at half of the fitted maximal effect
Target sequence (Q9Y253 whole entry, looked up): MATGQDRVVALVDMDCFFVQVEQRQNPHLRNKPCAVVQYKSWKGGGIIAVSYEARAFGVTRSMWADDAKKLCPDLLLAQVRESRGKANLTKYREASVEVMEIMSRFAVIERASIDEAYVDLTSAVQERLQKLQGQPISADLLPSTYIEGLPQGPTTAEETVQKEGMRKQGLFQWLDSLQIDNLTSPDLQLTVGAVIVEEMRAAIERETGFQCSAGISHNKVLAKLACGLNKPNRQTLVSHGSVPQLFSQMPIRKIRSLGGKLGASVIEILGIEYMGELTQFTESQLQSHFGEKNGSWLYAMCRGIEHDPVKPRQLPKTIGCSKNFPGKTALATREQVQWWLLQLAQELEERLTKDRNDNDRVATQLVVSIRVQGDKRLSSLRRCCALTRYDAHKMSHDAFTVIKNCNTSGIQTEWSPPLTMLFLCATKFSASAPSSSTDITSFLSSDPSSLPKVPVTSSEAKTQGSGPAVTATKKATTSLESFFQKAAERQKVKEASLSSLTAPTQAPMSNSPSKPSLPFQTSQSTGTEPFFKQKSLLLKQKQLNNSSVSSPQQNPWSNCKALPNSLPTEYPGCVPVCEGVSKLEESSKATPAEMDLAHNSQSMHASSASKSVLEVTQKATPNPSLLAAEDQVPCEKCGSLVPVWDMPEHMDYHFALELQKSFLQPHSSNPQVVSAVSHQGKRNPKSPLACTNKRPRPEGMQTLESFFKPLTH
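Pol eta (10 nM) was preincubated with compounds for 15 min at room temperature, after which fluorescent replication substrate (50 nM final) was added to start the reaction. Fluorescence was read kinetically at 0 and 10 min.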
Tb PGK inh = inhibitors of T. brucei phosphoglycerate kinase | 380,000 compounds, 0.043% hits | P07378 | Potency, µM (titrated, usually from 57.5 µM), without a hit: top-dose activity change, negative = inhibition, usual class: inhibitors | AID 602233 | PGK/GAPDH coupled, Kinase-Glo luminescence, 60 min; further: potency means the concentration at half of the fitted maximal effect; nearly all actives have a fitted effect of over 60% in size
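Recombinant glycosomal PGK reaction used 1,3-bisphosphoglycerate generated in-well by GAPDH (100nM final) in 100mM TEA pH 7.6, 5mM MgCl2, 0.01% Tween-20. After 60 minutes at room temperature, ATP was read by Kinase-Glo Plus luminescence end-point.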
GLS inh = glutaminase GLS (human) inhibition; O94925; GLS enzymatic activity, qHTS titration; Potency, µM (highest dose often 45.5 µM), for inactives: top-dose activity change, negative = inhibition, actives largely listed as inhibitors; 410,000 compounds, 0.21% hits; AID 624170; further: potency means the concentration at half of the fitted maximal effect
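Enzyme dispensed in phosphate buffer (45 mM, pH 8.2, 0.02% Tween-20), compounds pinned in, then 1 mM L-glutamine solution and the glutamate oxidase–HRP–Amplex Red mix added; fluorescence read immediately and again after 30 min at room temperature.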
Pin1 inhibitor = blocks the human prolyl isomerase Pin1 | Potency, µM (highest dose often 115 µM), without a hit: top-dose activity, negative = inhibition, most hits filed as inhibitors | Pin1 FP peptide displacement, HiFluor488, 10 min | AID 504891 | 390,000 compounds, 0.009% hits | Q13526; active means well fitted inhibition curve with a large enough effect in the polarisation, with a control signal flat, not every such curve was filed as active; inconclusive means small, poorly fitted or top-dose-only effect, or effect the other way, or a change in a side signal; inactive means no such curve, though single readings can be large or run the other way; the % refers to the polarisation; further: potency means the concentration at half of the fitted maximal effect
Target sequence (Q13526 whole entry, looked up): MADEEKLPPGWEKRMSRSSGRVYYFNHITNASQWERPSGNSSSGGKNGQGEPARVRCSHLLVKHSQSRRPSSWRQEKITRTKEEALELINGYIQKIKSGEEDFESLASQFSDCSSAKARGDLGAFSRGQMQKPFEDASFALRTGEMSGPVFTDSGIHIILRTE
G9a block = blocks human histone lysine methyltransferase G9a. Q96KQ7. 350,000 compounds, 8.8% hits. Potency, µM (titrated, usually from 102 µM), for the others: at the top dose activity, negative = inhibition, actives largely listed as inhibitors. G9a H3K9 monomethylation, AlphaScreen, 2 h. AID 504332; further: potency means the concentration at half of the fitted maximal effect; nearly all actives have a fitted effect of over 75% in size
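Compounds were preincubated with 20 nM G9a for 15 min, after which biotinylated H3K9 peptide (500 nM) and SAM (20 uM) started a 2 h room-temperature reaction. Monomethylated product was quantified by antibody-based AlphaScreen chemiluminescence.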
The depositor's hits bear a star; & = joins results of further samples; [ ] = remark or other dose. Unless noted, the call rests on the fitted dose curve; in most records, active means well fitted curve in the direction sought with a large enough effect; inconclusive means small, poorly fitted or top-dose-only effect, or another doubt; inactive means no such curve, though single readings can be large; an effect the other way counts as inactive or inconclusive. Unless noted, on the % scale 0 is the no-effect control and ±100 the full control effect. Only part of the results is shown; the hit share may differ from the screen's.

`COc1ccc2c(c1)-c1c(ssc1=S)C(C)(C)N2C(=O)CSC1=NCCS1` gave PI4K2A block -20, Pol eta inh 8%, Tb PGK inh -4%, GLS inh 8%, Pin1 inhibitor -4% and G9a block 5.6µM*.
Screening C1CCCCCC(=NNc2nn[nH]n2)CCCCC1 returned PI4K2A block -2, Pol eta inh -7%, Tb PGK inh 8%, GLS inh 0%, Pin1 inhibitor -9% and G9a block 3.2µM*.
`CCCCNc1oc(-c2ccc(OC)cc2)nc1S(=O)(=O)c1ccccc1` gave PI4K2A block 5, Pol eta inh -5%, Tb PGK inh -7%, GLS inh 9%, Pin1 inhibitor -10% and G9a block 2.8µM*.
`O=[N+]([O-])c1cc2c(cc1CN1CCN(c3ccc(F)cc3)CC1)OCO2` gave PI4K2A block -2, Pol eta inh -12%, Tb PGK inh inactive, GLS inh 11%, Pin1 inhibitor -10% and G9a block 45µM*.
`c1ccc(-c2nccc(-c3ccc(-n4cnc5ccccc54)cc3)n2)nc1` gave PI4K2A block 3, Pol eta inh -10%, Tb PGK inh inactive, GLS inh -12%, Pin1 inhibitor 2% and G9a block 6%.
For O=C(COc1ccccc1)Nc1ncn[nH]1 the results were PI4K2A block 3, Pol eta inh 6%, Tb PGK inh -8%, GLS inh 15%, Pin1 inhibitor 2% and G9a block 18%[12.7 µM].
`O=C(CN1CCc2ccccc2C1)c1cccs1` gave PI4K2A block -2, Pol eta inh -16%, Tb PGK inh -10%, GLS inh 10%, Pin1 inhibitor -10% and G9a block inconclusive.
For CC1(C)Oc2ccc3ccc(=O)oc3c2/C(=C/NC2CCCCC2)C1=O the results were PI4K2A block -2, Pol eta inh -7%, Tb PGK inh -10%, GLS inh -8%, Pin1 inhibitor -1% and G9a block inconclusive.
CCOC(=O)C1=NN(c2ccccc2)C2(S1)SC(C(C)=O)=C(C)N2c1ccccc1 (stereo not given) was read as PI4K2A block -2, Pol eta inh -9%, Tb PGK inh -9%, GLS inh 13%, Pin1 inhibitor 20% and G9a block inconclusive.
COc1cc2c(cc1OC)C(C)N(Cc1ccc3c(c1)OCO3)CC2 (stereo not given) was read as PI4K2A block 0, Pol eta inh -19%, Tb PGK inh -9%, GLS inh 15%, Pin1 inhibitor -1% and G9a block -31%[12.7 µM].
`CCC(C)N1CCN(S(=O)(=O)c2ccc3ccccc3c2)CC1` (stereo not given) gave PI4K2A block 4, Pol eta inh 6%, Tb PGK inh -3%, GLS inh -3%, Pin1 inhibitor 7% and G9a block inconclusive.
Screening CC(O)CNC(=O)C1CCN(Cc2ccc(OCc3ccccc3)cc2)CC1 (stereo not given) returned PI4K2A block 5, Pol eta inh -11%, Tb PGK inh -4%, GLS inh -2%, Pin1 inhibitor -1% and G9a block 4µM*.
Screening CCOC(=O)N1CCC(NCCNC(=O)c2ccco2)CC1 returned PI4K2A block 8, Pol eta inh -8%, Tb PGK inh -1%, GLS inh -2%, Pin1 inhibitor -4% and G9a block 3.2µM*.
For CC1=CC(C)(C)N(C(=O)CNC2CCCC2)c2cc(C)ccc21 the results were PI4K2A block -1, Pol eta inh -1%, Tb PGK inh inactive, GLS inh -2% and Pin1 inhibitor -9%.
Cn1cc(CN(Cc2ccccn2)C[C@@H]2CCC(=O)N2)c(-c2ccccc2F)n1 was read as PI4K2A block 4, Pol eta inh -6%, Tb PGK inh inactive, GLS inh 0%, Pin1 inhibitor 4% and G9a block -37%.
OC(CCN1CC2CCC(CC2)C1)(Cc1ccccc1)c1ccco1 (stereo not given) was read as PI4K2A block 10, Pol eta inh -15%, Tb PGK inh -10%, GLS inh 21% and Pin1 inhibitor 0%.
O=[N+]([O-])c1ccccc1-c1ccc(CN2CCN(c3ccccc3)CC2)o1 was read as PI4K2A block -2, Pol eta inh -21%, Tb PGK inh -3%, GLS inh 10%, Pin1 inhibitor -8% and G9a block 40µM*.
Cn1c(-c2ccccc2)cnc1NCc1ccccc1 was read as PI4K2A block 5, Pol eta inh 1%, Tb PGK inh 8%, GLS inh 7%, Pin1 inhibitor -5% and G9a block 18%[0.501 µM].
COc1cc(CN2CCN(c3ccccc3F)CC2)cc(OC)c1O was read as PI4K2A block 6, Pol eta inh -4%, Tb PGK inh -5%, GLS inh 21%, Pin1 inhibitor 6% and G9a block inconclusive.
`COc1cc2c(cc1NC(=O)CSc1nccn1C)oc1ccccc12` gave PI4K2A block 0, Pol eta inh -8%, Tb PGK inh inactive, GLS inh -2%, Pin1 inhibitor -14% and G9a block inconclusive.
Screening O=C(COc1ccccc1)Nc1nnc(-c2ccccc2)o1 returned PI4K2A block 0, Pol eta inh -11%, Tb PGK inh -1%, GLS inh 1%, Pin1 inhibitor 4% and G9a block 79µM*.
COc1cccc(N2CCN(c3ccc(S(=O)(=O)N4CCN(C)CC4)cc3[N+](=O)[O-])CC2)c1 was read as PI4K2A block -6, Pol eta inh -17%, Tb PGK inh inactive, GLS inh -18% and Pin1 inhibitor -13%.
`COc1cc(CN2CCC(Cc3ccccc3)CC2)cc([N+](=O)[O-])c1O` gave PI4K2A block -3, Pol eta inh -4%, Tb PGK inh -1%, GLS inh 9%, Pin1 inhibitor -1% and G9a block 2.5µM*.
`COc1cc(C)c(CNc2cccc(C)c2)cc1C` gave PI4K2A block 2, Pol eta inh -9%, Tb PGK inh -8%, GLS inh 27%, Pin1 inhibitor 1% and G9a block 8%[0.501 µM].
For CCOC(=O)c1sc(/N=C/c2c(O)ccc3ccccc23)cc1C the results were PI4K2A block -1, Pol eta inh -6%, Tb PGK inh inactive, GLS inh -3%, Pin1 inhibitor -3% and G9a block 8.9µM*.
CCN1CCN(C(=S)NCCOC)CC1 was read as PI4K2A block 3, Pol eta inh -9%, Tb PGK inh 7%, GLS inh 22%, Pin1 inhibitor -6% and G9a block 16µM*.
`CS(=O)(=O)c1ccccc1-c1nnc(NC(=O)c2ccc3c(c2)OCCO3)o1` gave PI4K2A block 1, Pol eta inh -2%, Tb PGK inh inactive, GLS inh -6%, Pin1 inhibitor 4% and G9a block 17%[59 µM].
Screening COc1cc(C(=O)NC(=S)NNC(=O)c2cnccn2)cc(OC)c1OC returned PI4K2A block -10, Pol eta inh 0%, Tb PGK inh -11%, GLS inh 19%, Pin1 inhibitor -8% and G9a block -4%[59 µM].
CNc1ccc(/C=C2\CSc3ccccc3C2=O)cc1[N+](=O)[O-] was read as PI4K2A block 1, Pol eta inh -21%, Tb PGK inh -3%, GLS inh -5%, Pin1 inhibitor -3% and G9a block -127%[59 µM].
For COC(=O)C1=NN(c2ccccc2)C2(S1)SC(C(C)=O)=C(C)N2c1ccccc1 (stereo not given) the results were PI4K2A block -3, Pol eta inh -9%, Tb PGK inh inactive, GLS inh -14%, Pin1 inhibitor -1% and G9a block 13%[0.501 µM].
COc1cc(NC(=O)CSc2ccc(-c3ccccn3)nn2)cc(OC)c1 was read as PI4K2A block 0&4, Pol eta inh -21%, Tb PGK inh -6%, GLS inh 2%&4%, Pin1 inhibitor -4%&-4% and G9a block -4%[59 µM].
For O=C(O)CC/C(=N\Nc1ccccc1[N+](=O)[O-])c1cccs1 the results were PI4K2A block -5, Pol eta inh -18%, Tb PGK inh -6%, GLS inh 11%, Pin1 inhibitor 3% and G9a block 35µM*.
For COc1ccccc1N1CCN(CCCCOc2c(OC)cccc2OC)CC1 the results were PI4K2A block 3, Pol eta inh -23%, Tb PGK inh 5%, GLS inh 12%, Pin1 inhibitor -7% and G9a block inconclusive.
CS(=O)(=O)c1ccccc1-c1nnc(NC(=O)COc2ccc(Cl)cc2)o1 was read as PI4K2A block -7, Pol eta inh -5%, Tb PGK inh -4%, GLS inh 21%, Pin1 inhibitor 1% and G9a block -12%.
For CC1CC(C)CN(c2nc(NCc3ccco3)nc(N)c2[N+](=O)[O-])C1 (stereo not given) the results were PI4K2A block 6, Pol eta inh -20%, Tb PGK inh inactive, GLS inh 11%, Pin1 inhibitor -1% and G9a block 1%[59 µM].
`CC(C)[C@H]1C=C(C(=O)O)O[C@@H](OCCCCO)C1` gave PI4K2A block 2, Pol eta inh -8%, Tb PGK inh -6%, GLS inh -1%, Pin1 inhibitor -3% and G9a block inconclusive.
For CCOC(=O)C1CCN(C/C=C/c2ccccc2OC)CC1 the results were PI4K2A block 0, Pol eta inh -8%, Tb PGK inh -7%, GLS inh -1%, Pin1 inhibitor -2% and G9a block inconclusive.
For CC(=O)Nc1cccc(C(=O)OCC(=O)Nc2nnc(-c3ccccc3)o2)c1 the results were PI4K2A block -2, Pol eta inh -11%, Tb PGK inh 1%, GLS inh 1%, Pin1 inhibitor 8% and G9a block -1%.
Screening CCOC(=O)C1=C(C)NC(=O)NC1c1c(C)nn(-c2ccccc2)c1Cl (stereo not given) returned PI4K2A block inconclusive, Pol eta inh 6%, Tb PGK inh inconclusive, GLS inh -3%, Pin1 inhibitor -6% and G9a block 1.1µM*.
For COc1cc(C(=O)Nn2c(O)c(C3=c4ccccc4=NC3=O)sc2=S)ccc1O the results were PI4K2A block -8, Pol eta inh inconclusive, Tb PGK inh inactive, GLS inh 23%, Pin1 inhibitor -3% and G9a block 45µM*.
`O=C(/C=C/c1cccs1)Nc1sc2c(c1C(=O)O)CCCC2` gave PI4K2A block -2, Pol eta inh -11%, Tb PGK inh -2%, GLS inh -5%, Pin1 inhibitor inconclusive and G9a block 50µM*.
`CCc1ccc2c(CN(C)Cc3ccccc3OC)cc(=O)oc2c1` gave PI4K2A block -2, Pol eta inh -21%, Tb PGK inh -8%, GLS inh 5%, Pin1 inhibitor -9% and G9a block inconclusive.
For c1ccc(-c2ccc(OCCCNC3CCCC3)cc2)cc1 the results were PI4K2A block 2, Pol eta inh -15%, Tb PGK inh -4%, GLS inh -15% and Pin1 inhibitor -2%.
CC(C)(C)c1ccc(OCCN2CCCC2)cc1 was read as PI4K2A block 7, Pol eta inh -10%, Tb PGK inh -8%, GLS inh 6%, Pin1 inhibitor -4% and G9a block inconclusive.
Screening O=[N+]([O-])c1c(C(Cl)Cl)nn(-c2ccc(Cl)cc2)c1N1CCCCC1 returned PI4K2A block -2, Pol eta inh 1%, Tb PGK inh -5%, GLS inh 10%, Pin1 inhibitor 13% and G9a block inconclusive.
`O=C(/C=C/c1c(F)cccc1Cl)Nc1nn[nH]n1` gave PI4K2A block -6, Pol eta inh -20%, Tb PGK inh 5%, GLS inh 6%, Pin1 inhibitor -3% and G9a block 40µM*.
`Clc1ccc(CN2CCCCCCC2)cc1` gave PI4K2A block 2, Pol eta inh -9%, Tb PGK inh -1%, GLS inh -3%, Pin1 inhibitor 0% and G9a block 7.1µM*.
`CNCCC1Sc2ccccc2Oc2ccccc21` (stereo not given) gave PI4K2A block -2, Pol eta inh -7%, Tb PGK inh -1%, GLS inh -2%, Pin1 inhibitor -8% and G9a block 10µM*.

Entries from the list above that have an aryl thioether with sulfur outside any ring:
`COc1cc2c(cc1NC(=O)CSc1nccn1C)oc1ccccc12` gave PI4K2A block 0, Pol eta inh -8%, Tb PGK inh inactive, GLS inh -2%, Pin1 inhibitor -14% and G9a block inconclusive.
COc1cc(NC(=O)CSc2ccc(-c3ccccn3)nn2)cc(OC)c1 was read as PI4K2A block 0&4, Pol eta inh -21%, Tb PGK inh -6%, GLS inh 2%&4%, Pin1 inhibitor -4%&-4% and G9a block -4%[59 µM].
